KCNQ2 block – KCNQ2 potassium channel inhibitors, primary screen, cell-based, CHO-K1, FluxOR thallium flux, B-score (AID 2156); O88943; 20 min; stronger effect = lower value; only compounds with negative scores are shown here; some inactives read as strong as hits; B-score at 10 µM; 310,000 tested, 1.1% active;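 active means fluorescence ratio B-score at most minus 3 library SDs, with starting brightness B-score within 2 library SDs, cut at about -5.5 in these data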
Target sequence (O88943 whole entry, looked up): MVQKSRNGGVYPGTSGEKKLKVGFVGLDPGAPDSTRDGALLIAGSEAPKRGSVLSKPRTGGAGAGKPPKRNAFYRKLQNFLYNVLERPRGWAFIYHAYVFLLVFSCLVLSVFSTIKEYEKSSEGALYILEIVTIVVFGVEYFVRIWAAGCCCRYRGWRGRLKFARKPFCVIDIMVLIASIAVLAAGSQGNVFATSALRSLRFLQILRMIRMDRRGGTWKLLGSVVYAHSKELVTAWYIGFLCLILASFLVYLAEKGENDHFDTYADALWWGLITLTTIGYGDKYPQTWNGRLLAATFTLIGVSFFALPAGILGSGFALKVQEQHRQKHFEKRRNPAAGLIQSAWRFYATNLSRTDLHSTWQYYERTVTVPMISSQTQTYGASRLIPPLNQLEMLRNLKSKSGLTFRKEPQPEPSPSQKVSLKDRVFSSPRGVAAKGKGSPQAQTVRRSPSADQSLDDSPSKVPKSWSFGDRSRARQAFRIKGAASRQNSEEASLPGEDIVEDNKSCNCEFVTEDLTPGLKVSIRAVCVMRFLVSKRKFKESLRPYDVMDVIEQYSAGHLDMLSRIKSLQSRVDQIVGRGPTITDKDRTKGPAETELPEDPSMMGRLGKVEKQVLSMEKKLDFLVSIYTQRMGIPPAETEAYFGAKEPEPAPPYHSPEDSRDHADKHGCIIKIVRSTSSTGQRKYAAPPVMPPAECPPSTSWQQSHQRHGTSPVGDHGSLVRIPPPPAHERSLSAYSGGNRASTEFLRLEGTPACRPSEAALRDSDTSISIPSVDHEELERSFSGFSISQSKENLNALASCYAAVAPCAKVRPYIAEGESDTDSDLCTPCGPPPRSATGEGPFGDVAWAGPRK
KCNQ2 block baseline – recorded beside KCNQ2 block, whose call it bears; B-score; measured here: initial fluorescence intensity artifact check;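 brightness before thallium and not channel activity; 0 = typical well and far values either way flag optical interference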
The depositor's hits bear a star; i = inactive. This is a subset; the hit share may differ from the screen's.

SMILES | KCNQ2 block | KCNQ2 block baseline
CCOC(=O)C1CCCN(c2c(NCCCN3CCCC(C)C3)c(=O)c2=O)C1 (stereo not drawn) | i | 1.3
c1ccc2c(Nc3nc4c(s3)CCCC4)cccc2c1 | -7.4* | 1.2*
O=C(CNS(=O)(=O)c1ccc(Br)cc1)OCc1cc(=O)n2cc(Br)ccc2n1 | i | 2
CN(C(=O)CN1CCC(NC(=O)C2CCCCC2)CC1)C1CCCCC1 | i | 2.4
Cc1ccc(S(=O)(=O)N2CCOCC2)cc1NC(=O)COC(=O)CNC(=O)c1ccccc1 | i | 5.1
COc1ccc2c(c1)CC[C@@H]1[C@@H]2CC[C@]2(C)C(=O)CC[C@@H]12 | i | -0.87
Cc1ccc(N2CC(NS(=O)(=O)c3cccnc3)CC2=O)cc1C (stereo not drawn) | i | 0.34
CCc1ccc(OCC2c3cc(OC)c(OC)cc3CCN2C(C)=O)cc1 (stereo not drawn) | i | -0.11
COc1ccc(C)cc1N(CC(=O)Nc1ccc(S(=O)(=O)N2CCOCC2)cc1)S(C)(=O)=O | i | -0.69
N/C(=N\O)c1ccccc1-n1cccc1 | i | -0.4
Cc1csc(N/N=C/c2c(F)cccc2Cl)n1 | i | 1.5
CCCc1cc(=O)n2[nH]c(C)nc2n1 | i | 0.73
Cc1ccc(S(=O)(=O)NCCNC(=O)CN2CCOCC2)cc1 | i | -0.59
Cc1coc2c(C)c3oc(=O)c(CCC(=O)N[C@@H](C)C(=O)N[C@@H](Cc4ccccc4)C(=O)O)c(C)c3cc12 | i | -2.5
COc1cccc(Oc2cn[nH]c2-c2ccc(O)cc2O)c1 | i | -0.85
CC1CCC(NC(=O)CCCn2sc3ccccc3c2=O)CC1 (stereo not drawn) | i | 0.16
COc1cc(OC)c(C(=O)Nc2cccc3ccccc23)cc1OC | i | -0.06
CN1CCN(c2ccc(S(=O)(=O)N3CCCCC3)cn2)CC1 | i | -0.89
CC(C)NC(=O)NC(=O)COC(=O)c1ccccc1Oc1ccccc1 | i | 2.8
CC(=O)OCC1=C(C(=O)O)N2C(=O)[C@@H](NC(=O)Cc3cccs3)[C@H]2SC1 | i | -0.31
O=C(CCc1nc2ccccc2c(=O)[nH]1)N1CCN(S(=O)(=O)c2cccc([N+](=O)[O-])c2)CC1 | i | 1.1
Cc1ccc(C)c(S(=O)(=O)Nc2cccc(-n3cnnn3)c2)c1 | i | -1.2
O=C(COc1ccccc1)Nc1nn[nH]n1 | i | -1.7
O=c1[nH]c(C2CCN(S(=O)(=O)c3cccc(C(F)(F)F)c3)CC2)nc2c1nnn2Cc1cccc(F)c1 | i | 1.9
Cc1nn(Cc2c(F)c(F)c(F)c(F)c2F)c(C)c1NC(=O)c1ccc(COc2cc(Cl)ccc2Cl)cc1 | i | -1.2
CC(C)CC(NC(=O)C1CCC(C)CC1)C(=O)NCc1ccco1 (stereo not drawn) | i | 1.9
O=C(CSCSCC(=O)NCC1CCCO1)NCC1CCCO1 (stereo not drawn) | i | 0.94
CCCCNCCCOc1cccc(Cl)c1 | i | 0.87
CCOC(=O)c1c(C)[nH]c(C(=O)COC(=O)c2ccccc2NC(=O)c2ccco2)c1C | i | -2.2
CC(C)N1CCN(C(=O)c2cccc(Cl)c2)CC1 | i | -0.01
CCC(Sc1nc2cc(OC)c(OC)cc2c(=O)n1CCc1ccc(OC)c(OC)c1)C(=O)NCCOC (stereo not drawn) | i | -0.82
CCc1ccc(-n2c(SCC(=O)N3Cc4ccccc4CC3C(=O)O)nnc2-c2ccncc2)cc1 (stereo not drawn) | i | 0.79
COc1cc(SC)ccc1C(=O)NCCOc1c(C)cc(C)cc1C | i | 0.09
Cc1cccc(N(C(=O)Cc2cccs2)C(C(=O)NC2CCCC2)c2ccncc2)c1 (stereo not drawn) | i | -0.68
CCOc1ccccc1OCCCOc1ccc(C)cc1Br | i | -0.36
CC(=O)c1ccc(NC(=O)c2cc(CC(C)C)nc3ccccc23)cc1 | i | 0.78
COc1cccc(/C=C/C(=O)N2CC(C)OC(C)C2)c1OC (stereo not drawn) | i | -1.3
CC1(C)Nc2ccc(O)cc2-c2c1ssc2=S | i | -1
O=C(CCCN1C(=O)c2ccccc2C1=O)NC1CCCCCC1 | i | 0.34
O=c1c2ccccc2nc(-c2ccccc2Cl)n1O | i | -0.29
O=[N+]([O-])c1ccc(O)c(/C=N/n2c(-c3ccccc3)n[nH]c2=S)c1 | i | -1
CC(C)Cc1cc(C(=O)Nc2ccc(Br)cc2)no1 | i | -0.57
COc1cc(/C=C/C(=O)OC(C)C(=O)Nc2c(C)n(C)n(-c3ccccc3)c2=O)ccc1O (stereo not drawn) | i | -0.02
CN1C(=O)COc2ccc(C(=O)c3oc4ccccc4c3-c3cnc4c(c3)COc3ccccc3-4)cc21 | i | 1.5
O=C(OCc1nc2ccccc2s1)[C@@H]1CCCN1S(=O)(=O)c1ccccc1F | i | -1.9
O=C(CCN1C(=O)/C(=C\c2ccccc2)SC1=S)N1CCCCC1 | i | -0.64
O=C(Nc1ccc(Cl)cc1)Nc1ccc(N2CCC(C(F)(F)F)CC2)nc1 | i | 0.1
O=C(CCS(=O)(=O)Cc1cccc(Cl)c1)NCCc1ccccc1 | i | -0.54
CCN(C1=NS(=O)(=O)c2ccccc21)N(CC)S(=O)(=O)c1ccc(C)cc1 | i | 1.3
COc1ccc(C(=O)NCCN2CCOCC2)cc1[N+](=O)[O-] | i | 0.42
Cc1ccc(Cl)cc1NC(=O)C(=O)N1CCCCC1 | i | 0.87
O=C(O)C1CCC(Cn2c(SCc3cc(=O)n4ccccc4n3)nc3ccsc3c2=O)CC1 (stereo not drawn) | i | -0.89
COc1cccc(NC(=O)C(Sc2nnc(Nc3ccccc3C)s2)c2ccccc2)c1 (stereo not drawn) | i | 1.2
O=C(Nc1cccc2ncccc12)c1ccc(Cl)cc1 | i | 0.09
Cc1ccc(CNC(=O)C2CC3Cn4c(nc5ccccc54)C3N2C)o1 (stereo not drawn) | i | -1.1
O=c1cc(-c2ccncc2)oc2ccccc12 | i | 1
CC(=O)c1ccc(N2CCN(C(=O)CCC(=O)c3cccs3)CC2)cc1 | i | -1.5
Cc1ccc(/C=C/C(=O)OC(C)C(=O)Nc2ncc(Cl)cc2Cl)o1 (stereo not drawn) | i | 0.33
COc1ccc(-n2c(SCC(=O)NCc3cccs3)nnc2-c2ccoc2C)cc1 | i | 0.38
CC1CCCC(C)N1C(=O)CSc1ncccn1 (stereo not drawn) | i | -0.03
(listing goes on)
SMILES | KCNQ2 block | KCNQ2 block baseline
CC12CCC(=O)N1C(C(=O)Nc1cc(C(F)(F)F)ccc1N1CCCCC1)CS2 (stereo not drawn) | -6* | -2.1*
COc1ccc(CCC(C)NCc2ccc(Cl)c(Cl)c2)cc1 (stereo not drawn) | i | 1.1
Cc1cccc(NC(=O)Nc2ccc(Cl)cc2)n1 | i | 1.1
O=C(O)CN1CCc2ccccc2C1 | i | -1.9
CC(C)(C)CC(C)(C)N1CNC(=S)NC1 | i | -2
Clc1ccccc1N1CCN(Cc2ccc(Br)o2)CC1 | i | 0.96
COc1cccc(NC(=O)Cc2nnc(SCC(=O)NC3CCCC3)n2C)c1 | i | 0.56
CCC(=O)N1CC(C)C(=O)Nc2ccccc21 (stereo not drawn) | i | -1.1
O=C(CCCC(=O)NNC(=O)Nc1ccccc1)NNC(=O)Nc1ccccc1 | i | -0.28
O=C(NCC(c1ccco1)N1CCN(c2ccccc2)CC1)C(=O)NC1CC1 (stereo not drawn) | i | 0.68
O=C(N/N=C/C(Cl)=C/c1ccccc1)c1ccco1 | i | -0.27
CC(Sc1ccccc1)C(=O)NNC(=O)c1csc(N2CCOCC2)n1 (stereo not drawn) | i | 0.24
O=C(NCC(=O)N(CC1CCCO1)C(C(=O)NC1CCCCC1)c1ccc(F)cc1)c1ccco1 (stereo not drawn) | i | 0.77
O=C(CNS(=O)(=O)N1CCOCC1)N/N=C/c1cccnc1 | i | 0.41
COc1cc(/C=C(\C#N)c2nc3ccccc3n2C)cc(OC)c1O | i | 3.9
N#C[C@H]1[C@H](c2ccccc2)[C@](C#N)(C(=O)c2ccccc2)[C@@H]2C=Cc3ccccc3N21 | -8.6* | 3.7*
O=C(CCN1C(=O)S/C(=C\c2ccc(F)cc2)C1=O)Nc1ccc(C(=O)O)c(O)c1 | i | 0.39
CC(C)n1c(O)c(N=NC(=O)Cc2csc(N3CCOCC3)n2)c2ccccc21 | i | 0.02
CC(=O)N1c2ccc(S(=O)(=O)N3CCCC(C(=O)Nc4cccc(Cl)c4)C3)cc2CC1C (stereo not drawn) | i | -0.35
Cc1ccc(S(=O)(=O)Cc2csc(N)n2)cc1 | i | -0.1
COc1ccccc1CNC(=O)CCCn1c(=O)c2ccccc2n(CC(=O)NC2CCCC2)c1=O | i | 2
Cc1ccc(N(CC(=O)NC(C)c2ccccc2)S(=O)(=O)c2c(C)noc2C)cc1 (stereo not drawn) | i | -0.39
Cc1cccc(/N=C2/NC(=O)C(Cc3ccccc3)S2)n1 (stereo not drawn) | i | -2.2
O=C(NCc1ccccc1)c1sc(=S)n2c1[nH]c(=O)c1ccccc12 | i | -1.8
Cc1ccc(C2C(C#N)=C(N)Oc3n[nH]c(-c4ccccc4)c32)o1 (stereo not drawn) | i | 1.8
COc1ccc(C(=O)NCCCCCC(=O)O)cc1OC | i | -0.5
CC(C)(C)CC(=O)NCCCN1CCOCC1 | i | 0.73
CC(=O)c1ccc(NC(=O)c2cccc(NC(=O)c3ccccc3)c2)cc1 | i | 0.84
O=C(CNC(=S)N(Cc1ccccc1)Cc1cccnc1)N1CCOCC1 | i | -2.5
Cc1ccnc(NC(=O)CCc2c[nH]c3ccccc23)c1 | i | 0.06
O=S(NCc1ccco1)C12CC3CC(CC(C3)C1)C2 (stereo not drawn) | i | -0.43
CCc1ccc(NS(=O)(=O)c2cc(OC)ccc2OC)cc1 | i | 0.1
COc1cc(NC(=S)NCc2ccco2)cc(OC)c1 | i | 0.32
Cc1ccc(NC(=O)Nc2ccc(F)cc2F)c(OC(F)F)c1 | i | -1.2
CCOC(CNC(=O)Cn1nc(Cc2ccncc2)c2ccccc2c1=O)OCC | i | -0.15
COc1ccccc1NC(=O)CC1C(=O)NCCN1C(=O)Nc1ccc(Cl)c(Cl)c1 (stereo not drawn) | i | 0.88
COc1ccccc1NC(=O)CN1CCC(n2c(C)nc3cc(F)ccc32)CC1 | i | 0.06
Cc1ccsc1C(=O)OCc1nc2ccccc2c(=O)[nH]1 | i | 0.49
COc1ccc([N+](=O)[O-])cc1NC(=O)c1csc(C)c1 | i | 1.6
O=S(=O)(Nc1cccc(-c2cn3c(n2)SCC3)c1)c1ccccc1F | i | -0.01
CCOc1ccc(NC(=O)CCC(=O)N/N=C(\C)c2cccs2)cc1 | i | 0.25
CCN(CC)S(=O)(=O)c1cccc(NC(=O)/C=C/c2ccc([N+](=O)[O-])cc2)c1 | i | -0.57
Cc1ccc(C(=O)NCCc2nnc3ccc(SCC(=O)Nc4ccccc4C)nn23)cc1 | i | 0.19
CCCNC(=O)CSc1nccn1Cc1ccco1 | i | -0.03
Cc1nn(CC2CC2)c(=O)n1N(C)c1ncc(C(F)(F)F)cc1Cl | i | -0.11
CC(=O)NC12CC3CC(C1)CC(C(=O)OCC(=O)Nc1ncc(Cl)c(C)c1Cl)(C3)C2 | i | 0.39
O=C(NCCS(=O)(=O)N1CCN(c2ccccc2F)CC1)c1cccs1 | i | 0.15
O=C(CCN1CCCCC1)N/N=C/c1c[nH]c2ccccc12 | i | -0.22
CCn1c(SCC(=O)N/N=C/C=C\c2ccccc2[N+](=O)[O-])nc2ccccc21 | i | -1.1
Cc1cc(C)c(C)c(OCCCCn2cnc3ccccc3c2=O)c1 | i | -0.01
Cn1ccnc1SCC(=O)N1CCc2ccccc21 | i | 1.1
Cc1nn2c(COc3ccc(NC(=O)c4ccccc4Cl)cc3)nnc2c2ccccc12 | i | -0.01
Cc1cc(C)c(C#N)c(SCC2COc3ccccc3O2)n1 (stereo not drawn) | i | -0.86
CC(=O)c1cccc(NC(=O)c2cc(-c3ccco3)on2)c1 | i | -1.7
COc1cccc(-c2cc(C(=O)N3CCCCCC3)no2)c1 | i | 0.69
CCOc1ccc(S(=O)(=O)N2CCN(C(=O)c3cc4c(s3)CCCC4)CC2)cc1 | i | 1.4

Filtered by structure, the entries above containing an NH in an aromatic ring
SMILES | KCNQ2 block | KCNQ2 block baseline
CCCc1cc(=O)n2[nH]c(C)nc2n1 | i | 0.73
COc1cccc(Oc2cn[nH]c2-c2ccc(O)cc2O)c1 | i | -0.85
O=C(CCc1nc2ccccc2c(=O)[nH]1)N1CCN(S(=O)(=O)c2cccc([N+](=O)[O-])c2)CC1 | i | 1.1
O=C(COc1ccccc1)Nc1nn[nH]n1 | i | -1.7
O=c1[nH]c(C2CCN(S(=O)(=O)c3cccc(C(F)(F)F)c3)CC2)nc2c1nnn2Cc1cccc(F)c1 | i | 1.9
CCOC(=O)c1c(C)[nH]c(C(=O)COC(=O)c2ccccc2NC(=O)c2ccco2)c1C | i | -2.2
O=[N+]([O-])c1ccc(O)c(/C=N/n2c(-c3ccccc3)n[nH]c2=S)c1 | i | -1
O=C(NCc1ccccc1)c1sc(=S)n2c1[nH]c(=O)c1ccccc12 | i | -1.8
Cc1ccc(C2C(C#N)=C(N)Oc3n[nH]c(-c4ccccc4)c32)o1 (stereo not drawn) | i | 1.8
Cc1ccnc(NC(=O)CCc2c[nH]c3ccccc23)c1 | i | 0.06
Cc1ccsc1C(=O)OCc1nc2ccccc2c(=O)[nH]1 | i | 0.49
O=C(CCN1CCCCC1)N/N=C/c1c[nH]c2ccccc12 | i | -0.22

Assay outcomes as filed in PubChem.
